eIF4H inh: human eIF4H binding inhibitors, primary screen, translation initiation inhibitor project, biochemical, uHTS, fluorescence polarization. actives 0.94% (n = 290,000). Eukaryotic translation initiation factor 4H (Homo sapiens), Q15056. eIF4H fluorescence polarization binding assay. AID 2012, 2009. inhibition, % at 35 µM;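 active = 50% or more with normal probe brightness, or confirmed in later tests; inconclusive = above 50% with abnormal brightness, or retests that disagree; inactive = below 50% or failed in later tests; about a fifth of its hits are not listed in these tables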;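 also: calls also rest on retests at 20 µM and on dose response follow-up; 0% = protein and probe with vehicle and 100% = probe without protein; strong numbers were not always called active; many hits fall short of the cut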
Rce1 inh: yeast Rce1p protease inhibitors, primary screen, biochemical, fluorescence, cell-free homogeneous | calls only | AID 2563, 2010 | actives 0.27% (n = 290,000) | yeast membranes, quenched prenylated peptide cleavage fluorescence;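 active = fall in fluorescence gain of 50% or more versus controls, with final raw signal at or below 3038400; inconclusive = same 50% fall but final raw signal above 3038400; inactive = fall in fluorescence gain under 50%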;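 also: plate controls were neutral control wells for no effect and wells lacking membranes for full effect; tested at 10 µM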
Target sequence (Q03530 whole entry, looked up): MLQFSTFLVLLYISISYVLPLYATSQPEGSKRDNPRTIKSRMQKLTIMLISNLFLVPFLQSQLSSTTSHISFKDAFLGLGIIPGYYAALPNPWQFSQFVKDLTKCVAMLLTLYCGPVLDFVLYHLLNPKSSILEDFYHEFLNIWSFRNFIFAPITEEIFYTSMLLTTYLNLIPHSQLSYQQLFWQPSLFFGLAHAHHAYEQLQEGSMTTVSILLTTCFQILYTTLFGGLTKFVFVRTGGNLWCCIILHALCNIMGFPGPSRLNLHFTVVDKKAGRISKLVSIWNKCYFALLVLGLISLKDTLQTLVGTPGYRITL
Yeast UUG start: modulators of yeast start codon fidelity, primary screen, whole organism, S. cerevisiae, single point, plate reader; actives 0.13% (n = 350,000); AID 602363, 2012; activity score, % at 18.7 µM; S. cerevisiae UUG-firefly luciferase reporter, luminescence/redox ratio;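 active = replicate mean at a twofold rise or more, about +100% in these data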;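 also: firefly luciferase made from a UUG start codon reports start codon fidelity; reporter light over untreated wells divided by growth signal over untreated wells; some hits fall short of that in this replicate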
CSC inhib: cancer stem cell viability inhibitors, primary screen, luminescence | AID 2717, 2010 | inhibition, % at 7.5 µM | actives 1.1% (n = 300,000) | cancer stem cell-like cells viability;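 active = mean at 75% or more and at least half the replicates too; inconclusive = mean and replicates disagree; tested in HMLE shEcad cells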;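 also: 0% = median of negative and 100% = median of positive control wells; the first replicate is given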
PABP polyA inh: PABP poly(A) RNA binding inhibitors, primary screen, biochemical, fluorescence polarization, uHTS; Polyadenylate-binding protein 1 (Homo sapiens), P11940; inhibition, % at 35 µM; actives 1% (n = 290,000);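 active = 50% or more with normal probe brightness, or confirmed in later tests; inconclusive = above 50% with abnormal brightness, or retests that disagree; inactive = below 50% or failed in later tests; about a fifth of its hits are not listed in these tables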;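 also: calls also rest on retests at 20 µM and on dose response follow-up; controls were probe without protein and protein plus probe with vehicle; some compounds called inactive have numbers as strong as hits; many hits fall short of the cut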
Target sequence (P11940 whole entry, looked up): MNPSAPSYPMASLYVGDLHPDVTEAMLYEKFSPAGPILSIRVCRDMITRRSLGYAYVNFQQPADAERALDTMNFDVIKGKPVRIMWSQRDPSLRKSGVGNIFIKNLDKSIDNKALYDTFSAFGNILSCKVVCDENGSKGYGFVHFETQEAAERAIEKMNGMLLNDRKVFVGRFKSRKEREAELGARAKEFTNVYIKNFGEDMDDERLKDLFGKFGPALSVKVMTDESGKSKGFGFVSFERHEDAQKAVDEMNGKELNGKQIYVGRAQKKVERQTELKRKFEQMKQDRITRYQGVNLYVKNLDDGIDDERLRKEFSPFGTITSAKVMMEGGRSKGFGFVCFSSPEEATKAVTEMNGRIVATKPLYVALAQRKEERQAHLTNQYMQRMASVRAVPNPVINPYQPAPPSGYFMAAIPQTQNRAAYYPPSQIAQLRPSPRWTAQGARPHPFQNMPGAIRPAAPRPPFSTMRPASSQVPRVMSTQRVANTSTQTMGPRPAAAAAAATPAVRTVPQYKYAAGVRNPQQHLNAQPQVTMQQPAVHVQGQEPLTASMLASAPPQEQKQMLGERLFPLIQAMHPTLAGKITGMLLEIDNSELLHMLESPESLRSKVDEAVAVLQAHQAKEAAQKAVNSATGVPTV
MT1-MMP act inh: blockers of MT1-MMP proenzyme processing, primary screen, HT1080 RFP-PRO-GFP cells, GFP/RFP fluorescence; actives 0.061% (n = 360,000); GFP/RFP ratio change, % at 20 µM; GFP/RFP ratio fluorescence, overnight; percent of plate control window, DMSO zero; Matrix metalloproteinase-14 (Homo sapiens), P50281;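 active = GFP/RFP ratio change of at least 30% with cell ATP level not reduced by more than half and red fluorescence within 50% of control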; also: strong numbers were not always called active
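Assay system: HT1080 cells carrying an RFP-PRO-GFP reporter | Dosing: Single dose of 20 µM compound, 1% DMSO final | Incubation: Cells overnight before dosing, compound overnight, 37 °C, 5% CO2 | Evaluation: GFP/RFP fluorescence ratio | Control set: DMSO and RFP-L50D-GFP cell wells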
Env fusion inh: inhibitors of HIV-1 Env-driven cell-cell fusion, primary screen, HeLa-JRFL effector, CEM21 target cells, luciferase; inhibition, % at 12.3 µM; actives 1.1% (n = 360,000); AID 651610, 2012;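 active = mean replicate inhibition score of at least 50 and every replicate individually at or above 50; inconclusive = only one of the two criteria met; inactive = mean below 50 and not all replicates reaching 50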;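 also: 0% = plate neutral controls and 100% = maraviroc near 300 nM; one replicate is shown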
MT1-MMP act inh RFP: further read-out of MT1-MMP act inh, marked with its call; RFP signal change, %; measured here: RFP expression control read;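 0 = vehicle wells; hits needed this value within 50% of zero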
* marks the source's active call; other numbers are inactive results; i = inactive; ? = inconclusive; . = not tested or not shown; & = joins results of further samples. The list is partial (hit frequency here may not be typical).

SMILES	eIF4H inh	Rce1 inh	Yeast UUG start	CSC inhib	PABP polyA inh	MT1-MMP act inh	MT1-MMP act inh RFP	Env fusion inh
C=CCn1c(-c2cccc(OC)c2OC)n[nH]c1=S	0	i	-4	-8	?	-7	-23	3
Cc1ccc(F)cc1NC(=O)c1cnccn1	4	.	.	-13	-4	1	5	-12
COc1ccc(-c2csc(NC(=O)c3ccccc3C(=O)O)n2)cc1	6	i	.	-17	-6	-2	1	1
COc1cc2ccccc2cc1C(=O)N(CCN(C)C)c1nc2c(OC)ccc(OC)c2s1	-17	i	13	37	-10	-13	-12	-14
COc1ccc(OC)c2c1cc(C(=O)N[C@H](C(=O)N1CCC(C(=O)O)CC1)C(C)C)n2C	0	i	-4	-4	-2	3	0	-4
CC1(C)Cc2nc3oc4c(=O)n(CC(=O)Nc5cccc(Cl)c5)cnc4c3cc2CO1	12	i	-12	-5	-5	1	0	10
COc1ccc(NC(=O)c2cc(-c3ccccc3Cl)no2)cc1	-14	i	-14	-11	-8	-2	0	.
Nc1ncn([C@H]2C[C@H](O)[C@@H](CO)O2)c(=O)n1	.	i	-15	8	.	7	10	69*
CNc1nc(-c2ccc([N+](=O)[O-])cc2)cs1	13	i	-16	10	7	10	-6	.
C=CCn1c(=NC(=O)C2COc3ccccc3O2)sc2cc(S(N)(=O)=O)ccc21 (configuration not stated)	6	i	-19	-3	0	2	-9	-2
CCNC(=S)N1CCN(CCNC2=CC(=O)CC(C)(C)C2)CC1	-6	i	-13	2	0	0	4	12
CCOC(=O)Nc1ccc([N+](=O)[O-])cc1OC	.	i	19	-5	.	11	10	-4
Cn1c(=O)oc2cc(S(=O)(=O)NCCC(=O)NC3CCCC3)ccc21	4	i	-15	-9	9	5	5	-35
COc1cc(/C=C2\C(=O)N(CCC#N)N=C2C)c(Br)cc1OC(C)C	-8	i	-7	-5	-1	5	-1	-1
COCC(=O)Oc1c(Sc2ccccc2[N+](=O)[O-])c(C)nn1C(C)(C)C	-4	i	31	1	-3	4	5	-3
COc1ccc(NC(=O)C2C3C=CC4(O3)C2C(=O)N(CCN2CCCCC2C)C4C(=O)NC2CCCCC2)cc1 (configuration not stated)	-3	.	-3	-10	1	2	4	10
COc1cc(/C=N/NC(=O)CSc2cc(C)c(Br)cc2C)ccc1O	-6	i	-11	3	-1	3	-7	13
COc1ccc(-c2nc3ccc(C)cn3c2CC2CCCCC2)cc1OC	.	.	56	.	.	-2	2	-17
Cc1ccc2sc(N(CCCN(C)C)C(=O)c3ccc(S(=O)(=O)N(C)C4CCCCC4)cc3)nc2c1C	.	i	13	89*	.	-5	-4	-12
C=CC[C@H](CC(=O)N(CCO)Cc1ccccc1)C(=O)N[C@@H](C)COC(=O)[C@H](CC=C)CC(=O)OC(C)(C)C	.	.	7	.	.	-4	-4	-9

Only eIF4H inh and Rce1 inh, for some of the entries so far:
canonical_smiles,eIF4H inh,Rce1 inh
COc1cc2ccccc2cc1C(=O)N(CCN(C)C)c1nc2c(OC)ccc(OC)c2s1,-17,i
COc1ccc(OC)c2c1cc(C(=O)N[C@H](C(=O)N1CCC(C(=O)O)CC1)C(C)C)n2C,0,i

More entries:
SMILES	eIF4H inh	Rce1 inh	Yeast UUG start	CSC inhib	PABP polyA inh	MT1-MMP act inh	MT1-MMP act inh RFP	Env fusion inh
CN(C)CCN(C(=O)c1ccc(S(=O)(=O)N(C)c2ccccc2)cc1)c1nc2ccc(Cl)cc2s1	4	i	-2	-6	17	-3	1	-36
CCOC(=O)N1CCN(C(=O)c2ccc(NS(C)(=O)=O)cc2)CC1	2	i	-19	-5	7	5	7	.
C[C@H](CO)N1C[C@H](C)[C@@H](CN(C)Cc2ccc(-c3ccccc3)cc2)Oc2c(NC(=O)Cc3ccccc3)cccc2C1=O	.	.	4	20	.	-4	-3	.
COc1cccc(CN2CCC(n3nccc3NC(=O)CCCc3ccccc3)CC2)c1	0	i	-11	-1	5	-6	-4	-9
COC(=O)C1C(=O)C2=C(CC1C)NC(C)=C(C(=O)OCc1ccc(OC)cc1)C2c1ccc(C)o1 (configuration not stated)	0	i	-8	-1	4	-1	-4	-64
CCCNC(=O)c1cc(C2CCCCN2S(=O)(=O)c2cccc3cccnc23)on1 (configuration not stated)	.	.	-7	.	.	2	1	-13
C[C@H](NC(=O)c1ccccc1)C(=O)N1CCN(c2ccccc2)CC1	-8	i	-9	-1	-2	-2	2	-6
Oc1ccc(Nc2nnc(-c3ccc(O)cc3)c3ccccc23)cc1	-5	i	.	11	-3	7	3	22
CN1CCN(S(=O)(=O)c2ccc(N3CCN(c4ccc(O)cc4)CC3)c([N+](=O)[O-])c2)CC1	.	i	.	0	.	5	5	.
Cc1cc(C)nc(NC(=O)/C=C/c2ccccc2Cl)n1	5	i	.	.	-6	-4	-5	.
COc1ccnc(Oc2ccc(F)cc2)c1C(=O)N/C=N/OCc1ccc(F)cc1	4	i	.	-1	-5	4	-3	.
COc1ccc(N2CCN(C(=O)CN(CCc3ccccc3)S(C)(=O)=O)CC2)cc1	2	i	-6	-15	-4	2	-6	.
COc1cccc(CNC(=O)CCC2CCCN(C(=O)c3cscn3)C2)c1 (configuration not stated)	-15	i	.	-17	-2	2	12	-1
C[C@H](N)c1nnc(SCc2c(Cl)cccc2Cl)o1	-2	i	-6	4	10	3	2	-43
CC(=O)c1cccc(NC(=O)c2cc(=O)[nH]c3ccccc23)c1	-9	i	-10	-5	8	-4	-7	-6
O=C(O)CCCn1cc(NC(=O)c2ccco2)cn1	-4	i	-1	-16	-5	5	8	-4
Cc1cccc(C)c1NC(=O)COC(=O)[C@@H]1CCCN1C(=O)c1cccs1	.	.	-3	-10	.	0	2	2
O=C(CSc1nnc(-c2ccccc2Br)o1)N1CCc2ccccc2C1	-1	i	-15	-43	0	5	1	.
COc1ccccc1-n1c(-c2ccc(Cl)cc2)c[nH]c1=S	-6	i	.	-15	-6	-2	-4	-8
NC(=O)C1CCCN(CC(=O)Nc2cc(S(=O)(=O)N3CCOCC3)ccc2N2CCCC2)C1 (configuration not stated)	.	.	-15	.	.	-1	3	12
Cc1ccc(NC(=O)Cn2cccc2)c(Br)c1	0	i	-14	0	-6	-4	-1	-38
O=C(O)c1nn(CCOc2ccc(Cl)cc2Cl)c(=O)c2ccccc12	-1	i	-14	-13	16	-2	-1	-5
Cc1nnc(NC(=O)C2CSC3(C)CCC(=O)N23)s1 (configuration not stated)	.	i	-6	2	.	-1	5	-1
CCOC(=O)c1nn(-c2cc(C(=O)OC)cc(C(=O)OC)c2)cc1O	3	i	-5	-6	-1	5	-2	.
O=C(c1ccco1)N(Cc1cccc(Cl)c1)C1CCS(=O)(=O)C1 (configuration not stated)	4	i	-9	-3	-10	-2	6	-9
CCN1CCN(C(=O)C(C)Oc2ccc(S(=O)(=O)N3CCCC3)cc2C(N)=O)CC1 (configuration not stated)	.	.	-12	0	.	3	5	-8
CCCOc1ccc(NC(=O)OC2CCN(C)CC2)cc1	-9	i	.	-1	-2	-4	-2	.
CCc1n[nH]c(=S)n1/N=C/c1ccc(-c2ccc(Br)cc2)o1	.	i	-8	-12	.	10	0	-24
Clc1ccc(-c2nnc(-c3ccccc3)nc2-c2c[nH]c3ccccc23)cc1	4	i	.	3	2	1	5	4
CC(=O)N1C(C)(C)CC(=NOC(=O)c2ccccc2)CC1(C)C	-4	i	.	4	1	0	5	-17
Cc1ccc(CC(=O)Nc2ccc(S(=O)(=O)N3CCOCC3)cc2)cc1C	.	.	6	7	.	3	-3	.
CCc1ccc(NC(=O)CSc2ccc(-c3ccccn3)nn2)cc1	-12	i	-26	6	11	3	-3	8
CC(=O)c1ccc(OCC(O)CN2CCN(CCO)CC2)cc1 (configuration not stated)	3	i	-8	-14	-7	-2	5	-7
CCOc1ccc(NN=C(C(=O)OC)C(=O)OC)c([N+](=O)[O-])c1	16	i	-9	-16	-5	7	1	7
CN1CCN(C(=O)/C(=C/c2ccccc2F)NC(=O)c2ccccc2)CC1	0	i	-25	.	-3	-2	-1	-7
NC(=O)COC(=O)c1ccc(C(=O)C(=O)c2ccccc2)cc1	23	i	.	6	3	1	3	13
O=C(CCNC(=O)c1ccccc1Cl)Nc1ccc(Cl)c(C(F)(F)F)c1	-6	i	.	3	-15	1	-5	2
COc1ccc2[nH]c3c(c2c1)CCN1C(=O)C(CC(=O)NCCCn2ccnc2)C[C@H](C(=O)N2CCOCC2)[C@@]31CCC1CCCC1 (some centres not stated)	.	.	-28	.	.	2	0	-8
C[C@H]1CN([C@@H](C)CO)C(=O)CCCn2cc(nn2)CO[C@@H]1CN(C)S(=O)(=O)c1ccc2ccccc2c1	.	.	-31&16	.	.	-1	1	16
Cc1ccsc1C(=O)N1CCC1(C)C(=O)NCc1cccnc1 (configuration not stated)	.	.	-6	.	.	0	3	27
CCOc1ccc(NC(=O)CN(c2ccc(OC)c(OC)c2)S(=O)(=O)c2ccc(C)cc2)cc1	9	i	-3	-7	3	-1	-5	0
COc1ccc(OC)c(C(=O)NC(CC(N)=O)c2ccc(N3CCN(c4ccc(F)cc4)CC3)c([N+](=O)[O-])c2)c1 (configuration not stated)	-10	i	-4	-5	-3	.	.	5
CC1(NC(=O)NCc2ccco2)CCS(=O)(=O)C1 (configuration not stated)	-11	i	.	-8	-8	-3	3	-15
CCn1cc([C@@H]2C[C@H]3CN(Cc4cccc(Cl)c4)C(=O)[C@]34CCCN24)cn1	7	i	.	-3	10	0	0	18
CCC(NC(=O)Nc1nccs1)(C(F)(F)F)C(F)(F)F	1	i	-2	-9	7	-1	-2	.
Cc1cc(C(=O)Nc2ccc(Cl)cc2)c2ccccc2n1	-8	i	-21	3	-5	2	1	12
CCn1cc(C(=O)O)c(=O)c2cc(F)c(N3CCN(C(=S)Nc4ccccc4OC)CC3)cc21	-3	i	.	-10	1	-6	-3	-6
O=[N+]([O-])c1cc(Cl)cc(/C=N\Nc2ccccn2)c1O	26	i	-15	112*	8	3	-10	.
COc1ccc2c(c1)cc(C(=O)N[C@@H](Cc1ccccc1)C(=O)O)n2C	15	i	-13	-2	7	-2	0	-8
COc1ccc(OC)c(C(=O)c2coc3ccc(OCC(=O)O)cc23)c1	-2	i	-18	-10	6	-2	3	1
Cc1[nH]n(-c2ccccc2)c(=O)c1C=Nc1ccc(S(N)(=O)=O)cc1	-3	i	-13	5	15	1	3	19
CC(C)N(Cc1ccccc1)C(=S)NCCN1CCOCC1	0	i	.	1	10	2	9	-3
COc1ccc(-c2nc(C#N)c(NCC3CCCO3)o2)cc1OC (configuration not stated)	-10	?	-1	-2	-7	7	4	-37
CC(=O)C1=CCC(c2ccc(F)cc2)N(S(=O)(=O)c2ccc(C)cc2)C1 (configuration not stated)	.	.	-10&-10	.	.	5&2	0&1	-3
CCCCCN1C(=O)/C(=C/c2c(N3CCc4ccccc4C3)nc3ccccn3c2=O)SC1=S	.	.	-26	16	.	-87	22	-25
CC(=O)Cn1ncc(N2CCOCC2)c(Cl)c1=O	-1	i	-3	2	-9	2	6	-1
COC(=O)c1c(-c2c(Cl)cccc2Cl)noc1C(=O)NNC(=O)N(C)C	-2	i	.	1	-4	2	-2	-5
